# Mtb MbtI inh: inhibitors of Mycobacterium tuberculosis siderophore enzyme MbtI | inhibition, %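 (about 17 µg/mL by stock and volumes)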 | AID 493033 | purified MbtI enzyme, fluorescence intensity read-out | hit rate 0.89% among 100,000 | P9WFX0;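 active = above 50% in both replicates, above 80% if mildly self-fluorescent; inactive = the rest, strongly fluorescent compounds included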;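 note: 0% = mean of negative and 100% = mean of positive controls; one replicate is shown; some compounds called inactive have numbers as strong as hits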
# Target sequence (P9WFX0 whole entry, looked up): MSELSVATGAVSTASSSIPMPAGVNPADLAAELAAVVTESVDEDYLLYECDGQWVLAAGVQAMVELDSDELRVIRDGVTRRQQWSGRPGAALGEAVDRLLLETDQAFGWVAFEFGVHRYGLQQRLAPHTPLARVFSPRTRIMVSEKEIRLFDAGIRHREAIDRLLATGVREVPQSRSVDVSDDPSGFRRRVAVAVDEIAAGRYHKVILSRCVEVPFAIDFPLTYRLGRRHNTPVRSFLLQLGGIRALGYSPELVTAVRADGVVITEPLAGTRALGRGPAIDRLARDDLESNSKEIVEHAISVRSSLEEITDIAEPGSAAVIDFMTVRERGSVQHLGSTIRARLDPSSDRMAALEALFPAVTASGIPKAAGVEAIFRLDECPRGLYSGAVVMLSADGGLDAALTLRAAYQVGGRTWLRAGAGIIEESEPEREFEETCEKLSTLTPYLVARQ
# MenB inh: blocks the Mycobacterium tuberculosis MenB enzyme; P9WNP5; MenB enzyme assay, absorbance read-out; some hits fall short of the stated cut; inhibition, %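 (about 12 µg/mL by stock and volumes)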; hit rate 0.43% among 100,000; AID 540299;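 active = mean of two replicates above 30%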;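 note: 0% = no compound and 100% = wells with inactive enzyme; the first replicate is given; strong numbers were not always called active; inactives centre near -10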
# PV pol inh: inhibitors of poliovirus RNA polymerase binding and polymerization | P03300 | AID 588519 | poliovirus polymerase elongation, fluorescence polarization; stronger effect = lower value | hit rate 0.66% among 150,000 | % elongation, % (compound at 16.7 µg/mL); in the data active = % elongation below about 90%; note: some results filed as inactive read as strong as hits
# Target sequence (P03300 1749-2209 limits assumed): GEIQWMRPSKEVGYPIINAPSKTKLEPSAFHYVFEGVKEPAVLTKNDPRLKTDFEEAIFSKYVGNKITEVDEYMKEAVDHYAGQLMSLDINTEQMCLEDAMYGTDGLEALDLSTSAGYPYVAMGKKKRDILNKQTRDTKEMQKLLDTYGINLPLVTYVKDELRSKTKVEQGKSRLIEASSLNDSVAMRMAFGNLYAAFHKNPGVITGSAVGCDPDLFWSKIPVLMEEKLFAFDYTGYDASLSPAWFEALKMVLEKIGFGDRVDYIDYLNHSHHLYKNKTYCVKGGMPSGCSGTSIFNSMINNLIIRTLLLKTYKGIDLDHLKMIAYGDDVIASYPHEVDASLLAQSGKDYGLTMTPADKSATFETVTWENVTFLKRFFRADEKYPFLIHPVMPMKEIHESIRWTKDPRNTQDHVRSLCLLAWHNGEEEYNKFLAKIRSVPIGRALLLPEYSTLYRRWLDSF
# PV pol inh intensity: recorded beside PV pol inh, whose call it bears; % elongation; measured here: total intensity read-out; formula for this scale not given here;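 total fluorescence in place of polarization; lower means less elongation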
# * = called active by the depositor; / = no result given; & = joins results of further samples.
SMILES,Mtb MbtI inh,MenB inh,PV pol inh,PV pol inh intensity
CCn1c(=S)[nH]c2cc3ccccc3cc2c1=O,4,-35,105,108
CCOC(=O)N1CCN(C(=O)c2ccc3c(c2)NC(=O)/C(=C/c2ccccc2)S3)CC1,-9,0,101,102
COc1ccc(-n2cc(C(=O)Nc3cccc(SC)c3)nn2)cc1,0,-13,102,104
CC(=O)N/C(=C\c1ccc(F)cc1)C(=O)N(C)C,/,-14,106,108
Cc1cc(NC(=O)COc2ccccc2)no1,15,-18,99,91
Cc1c(C(=O)O)sc2nc3n(c(=O)c12)CCC(C)CC3 (stereo not drawn),4,-15,102,103
CSc1nc(/N=C/N(C)C)n(-c2ccccc2)n1,2,5,100,98
O=C(Nc1cccc(F)c1)N1C2CCC1CC(O)(c1cccnc1)C2 (stereo not drawn),-6,-18,103,104
COC(=O)c1c(NC(C)=O)sc2c1CCS2,12,-11,103,104
CC(C)NC(=O)C1CCN(C(=O)NCc2ccccc2)CC1,-15,-23,100,104
Cc1ccccc1NC(=O)CCCn1sc2ccccc2c1=O,22,0,104,105
C=CCNC(=O)CN1CCN(S(=O)(=O)c2cc(C)ccc2C)CC1,-7,-33,98,107
O=C(N/N=C\c1cccnc1)c1n[nH]c2c1CCCC2,3,-2,100,100
CC12C(=O)N(c3ccc(I)cc3)C(=O)C1C1C=CC2C1 (stereo not drawn),-9,-24,101,102
Cc1cc(C)n(CC(=O)NCc2ccccc2)c(=O)n1,6,-1,101,102
O=C(c1ccc(Cl)s1)N1CCc2ccccc2C1,-3,-20,99,95
O=C1C2CC=CCC2C(=O)N1CCOc1cccc(Br)c1 (stereo not drawn),-11,-5,107,101
Cc1ccccc1Nc1nc(N)nc(COC(=O)CCCN=C2NS(=O)(=O)c3ccccc32)n1,-8,-1,86*,91*
O=C1COc2ccc(C(=O)NCc3ccc4c(c3)OCO4)cc2N1,-2,-10,101,102
O=C(OCC(=O)N(C1CCCCC1)C1CCCCC1)c1ccco1,-6,/,102,96
CCOC(=O)C1=C(CN(C)c2ccccc2)NC(=O)NC1c1ccc(C)cc1 (stereo not drawn),-4,-6,102,102
Cc1ccc(CNC(=O)CCS(=O)(=O)c2ccc3c(c2)NC(=O)CO3)cc1,-29,3,101,100
O=C(Cn1cnc2ccccc2c1=O)N1CCCCCC1,5,33*,100,100
CCSc1nnc(Cc2ccccc2)o1,9,-11,101,103
O=C1CN(C(=O)CCC(=O)c2ccc(Br)cc2)CCN1,1,8,112,114
SMILES,Mtb MbtI inh,MenB inh,PV pol inh,PV pol inh intensity
Cc1nn(-c2ccccc2)c(N2CCCC2)c1/C=N/N=c1\sc2ccccc2n1C,-3,-9,106,107
CCC12CN3CC(CC)(CN(C1)C3c1cccc(N)c1)C2=O (stereo not drawn),-5,16,101,104
CCc1ccc(NC(=O)Nc2nnc(N3CCCCC3)s2)cc1,1,-11,101,100
Nc1ccc2oc3c(c2c1)CCCC3,34,1,102,101
c1ccc(Cc2ccc[n+](Cc3ccccn3)c2)cc1,/,-12,107,106
NC(=O)CC12CC3CC(C1)CC(C(N)=O)(C3)C2,-6,/,102,107
CCOc1ccccc1C(=O)NCc1ccc2c(c1)OCO2,/,-5,106,111
Nc1ccc(Oc2ccc3ccccc3c2Cl)c(Cl)c1,3,-33,103,100
COC(=O)c1ccccc1NC(=O)N1CCC(CN2CCc3ccccc3C2)CC1,16,-23,103,98
O=C1c2ccccc2C(=O)N1CN1CCSCC1,-11,-21,105,106
O=C(N/N=C/c1cn(-c2ccccc2)nc1-c1cccs1)c1cccs1,25,-5,104,101
CCOc1ccccc1NC(=O)CS,83*,-140,98,99
Cn1c(=O)n(C)c2cc(N3CCCCC3)c(NC(=O)C(C)(C)C)cc21,3,14,100,101
Cc1oc(C(=O)O)cc1CSc1nc2ccccc2[nH]1,25,2,100,99
Cc1cc(C(=O)OCC(=O)c2ccc3[nH]c(=O)[nH]c3c2)c2ccccc2n1,-3,-10,90*,91*
COc1cc(/C=C2/N=C(C)OC2=O)cc(OC)c1OC,1,-8,113,124
CC(C)Cn1c(=O)c2ccccc2c2ccccc2c1=O,0,-17,103,101
Cc1ccc(C(=O)c2ccccc2C(=O)O)c(C)c1,-8,-51,101,101
CC1(C)OC(=O)C(=CNc2ccccc2)C(=O)O1,-3,-21,104,103
CCn1c(N)c(C(=O)NC)sc1=S,87*,-21,97,99
CCC1(O)CC(C(=O)OC)=NN1C(=O)c1ccccc1 (stereo not drawn),-2,6,99,101
O=C(O)Cn1c(=O)c(F)cn(C2CCCO2)c1=O (stereo not drawn),-2,-8,100,110
N#Cc1ccccc1CNCc1cccs1,-8,-6,100,100
CC(=O)N1c2nonc2N(C(C)=O)c2nonc21,19,4,100,102
CC(=O)Nc1sc2c(c1C(=O)O)CCCC2,0,/,102,100

# Molecules above with an aryl methoxy group:
SMILES,Mtb MbtI inh,MenB inh,PV pol inh,PV pol inh intensity
COc1ccc(-n2cc(C(=O)Nc3cccc(SC)c3)nn2)cc1,0,-13,102,104
COc1cc(/C=C2/N=C(C)OC2=O)cc(OC)c1OC,1,-8,113,124

# Full records, quoted from the list. Order of values: Mtb MbtI inh	MenB inh	PV pol inh	PV pol inh intensity
# `O=C1c2ccccc2C(=O)N1CN1CCSCC1` reads -11	-21	105	106
# `N#Cc1ccccc1CNCc1cccs1` reads -8	-6	100	100
# `CC1(C)OC(=O)C(=CNc2ccccc2)C(=O)O1` reads -3	-21	104	103
# `O=C(O)Cn1c(=O)c(F)cn(C2CCCO2)c1=O` (stereo not drawn) reads -2	-8	100	110

# Other records follow:
SMILES,Mtb MbtI inh,MenB inh,PV pol inh,PV pol inh intensity
COc1ccc(Cc2nnc(SCC(=O)Nc3ccc(S(=O)(=O)N4CCCCCC4)cc3)o2)cc1,-16,-101,/,/
CCn1cnc2cc(NCc3cccc(Br)c3)ccc21,9,-14,103,103
CN(C)/C=N/NC(=O)c1cc(COc2cc(Cl)cc(Cl)c2)on1,16,9,104,94
COc1ccc(CNC(=O)C2CCCN2C(=O)NCc2ccccc2)cc1 (stereo not drawn),-10,1,103,101
O=C(COc1ccccc1)Nc1nccs1,/,-19,103,106
Cc1cc2c(cc1S(=O)(=O)N1CCCC1)n(C)c(=O)c(=O)n2C,-6,-19,104,107
c1cncc(CNC2CC2)c1,6,-48,102,103
COc1cccc(OC)c1C(=O)Nc1nnc(CC(C)(C)C)s1,/,-19,71*,69*
O=c1c(-c2cccs2)nc2ccccc2n1C1CCCCC1,198,-13,118,210
CC(C)N(Cc1ccccc1)C(=O)Cn1c(=O)oc2ccccc21,2,-21,98,105
O=C(CCCSc1nc2ccc(Cl)cc2s1)c1ccc(F)cc1,/,-4,103,102
COc1cc2c(C(=O)N3CCCCCC3)cn(C)c(=O)c2cc1OC,0,6,101,106
CCCCN1C(=O)c2cccc3c(Cl)ccc1c23,0,-92,100,106
CC1CC(C)CN(C(=O)CCCc2nnc3n(C)c(=O)c4sccc4n23)C1 (stereo not drawn),4,-19,103,103
Cc1cccn2c(=O)c3cc(C(=O)NCCCN4CCCC4=O)n(C)c3nc12,-15,-20,102,103
O=C(Cn1cc(/C=C2/C(=O)NC(=O)N(Cc3ccco3)C2=O)c2ccccc21)NCC1CCCO1 (stereo not drawn),/,-50,102,106
CC1CN(C(=O)COC(=O)c2ccc3ccccc3c2)CC(C)O1 (stereo not drawn),90,/,104,108
O=C(NCc1ccc(-n2cccc2)cc1)c1cccs1,-10,-29,104,102
CN1CCN(C(=O)CCc2nc3ccccc3n2-c2ccccc2)CC1,-1,-6,101,104
CCc1cccc(NS(=O)(=O)c2ccc3c(c2)N(C)CCO3)c1,-12,-6,102,103
COCCN1C(=O)c2ccccc2C1=O,10,4,99,96
O=C(Cn1nnc(-c2ccc(CN3CCOCC3)cc2)n1)Nc1ccccc1F,-3,5,103,105
COC(=O)C1C(=O)C2=C(CC1C)Nc1ccccc1NC2c1ccc(C)cc1 (stereo not drawn),91,14,100,103
c1ccc(-c2nc(N3CCCC3)nc(-n3ccnc3)n2)cc1,/,-8,111,108
O=C(OCC1OC(n2ccc(=O)[nH]c2=O)C(O)C1OC(=O)c1ccccc1)c1ccccc1 (stereo not drawn),10,-19,106,110

# Quoted at random: two compounds from above
SMILES,Mtb MbtI inh,MenB inh,PV pol inh,PV pol inh intensity
c1cncc(CNC2CC2)c1,6,-48,102,103
COC(=O)C1C(=O)C2=C(CC1C)Nc1ccccc1NC2c1ccc(C)cc1 (stereo not drawn),91,14,100,103

# Further compounds:
SMILES,Mtb MbtI inh,MenB inh,PV pol inh,PV pol inh intensity
Clc1ccc(CCN2COc3cc4c(cc3C2)OCO4)c(Cl)c1,3,16,98,102
CN(CCOc1ccc(Cl)cc1)Cn1nnc2ccccc2c1=O,53,5,104,110
O=S(=O)(c1cccc(-c2cn3ccccc3n2)c1)N1CCCCC1,110,-26,102,105
O=C(CC1Oc2ccccc2NC1=O)Nc1cc(Cl)cc(Cl)c1 (stereo not drawn),-11,-19,103,106
Cc1nc(-c2ccc3c(c2)OCCO3)cs1,92*,-13,78*,82*
CC1CCN(S(=O)(=O)c2ccc(NC(=O)Nc3ccccc3)cc2)CC1,-4,6,99,100
Cc1ccc(S(=O)(=O)n2nccc2-c2c(C)nc3ccccn23)cc1,-8,-34,104,96
O=C1N/C(=N/N=C\c2[nH]ncc2Br)SC1c1ccccc1 (stereo not drawn),-3,1,102,100
Cc1ccccc1N1C(=O)NC(=O)/C(=C\c2cn(CC(=O)N3CCOCC3)c3ccccc23)C1=O,20,-154,100,105
C=CCN(CC=C)C(=O)c1ccc(N2C(=O)c3ccccc3C2=O)cc1,-9,-50,103,105
O=S1(=O)CC=C(Sc2ccccc2)C1,-6,-19,105,113
CCCC(CC(=O)N1CCN(C/C=C/c2ccccc2)CC1)n1ccnc1 (stereo not drawn),7,-20,104,105
O=C(CSc1nnc(-c2ccc3c(c2)OCO3)o1)c1ccccc1,-6,-3,104,109
O=C(Nc1ccc2nc(-c3cccs3)[nH]c2c1)c1cccs1,54,12,101,104
CCOc1ccc(Nc2ncccc2C#N)cc1,14,-8,104,108
C=CCN(C(=O)CSc1nnc(-c2cc3occc3n2C)n1-c1ccccc1C)c1ccccc1,-9,-23,101,98
c1ccc(-c2ccccc2OCc2nnc3n2CCC3)cc1,-6,/,104,106
COC(=O)c1ccc(Nc2cc(C)nc3ccccc23)cc1,104,-1,100,101
CC(C)N1C(=O)CSC1c1ccc(Br)cc1 (stereo not drawn),-8,/,102,103
CC1CN(C(=O)CSCc2ccccc2)CC(C)O1 (stereo not drawn),0,3,101,101
CCOC(=O)c1ccoc1CN1CCN(c2ccc(F)cc2)CC1,-13,-23,103,109
CCOC(=O)c1ccccc1NC(=O)CSc1nnc(Cc2cccn2C)n1-c1ccc(F)cc1,6,-10,101,103
C/C(=N\OC(=O)c1ccco1)c1ccccc1O,6,-12,98,98
Cc1cc(OCC(=O)C(C)(C)C)c2c3c(c(=O)oc2c1)CCCC3,-7,-31,100,100
CC(C)(C)C(CN1CCCC1)OC(=O)c1ccccc1 (stereo not drawn),/,-11,98,98

# As entered above:
# O=C1N/C(=N/N=C\c2[nH]ncc2Br)SC1c1ccccc1 (stereo not drawn) @ MenB inh = 1
# Cc1nc(-c2ccc3c(c2)OCCO3)cs1 @ MenB inh = -13
# CC1CCN(S(=O)(=O)c2ccc(NC(=O)Nc3ccccc3)cc2)CC1 @ MenB inh = 6

# Going on with the list:
SMILES,Mtb MbtI inh,MenB inh,PV pol inh,PV pol inh intensity
NS(=O)(=O)c1ccc(CCNC(=O)c2cc3c(Cl)ccc4c3n2CCO4)cc1,120,-42,105,100
Cc1ccc(-n2nnnc2SCCN2C(=O)c3ccccc3C2=O)c(C)c1,12,-17,103,109
NC(=O)C1CCN(CC(O)COc2ccc(-c3csnn3)cc2)CC1 (stereo not drawn),3,9,98,103
COc1ccc(NC(=O)CC2SC(=Nc3ccccc3)N(CCO)C2=O)cc1 (stereo not drawn),-13,29,103,102
COc1cc(/C=N/S(=O)(=O)CCc2ccccc2)cc(OC)c1O,0,-13,105,107
Cc1nn(C(=O)CCC(=O)N2CC(C)CC(C)C2)c2ccccc12 (stereo not drawn),-3,2,103,103
Cc1ccc(NC(=O)C(C)Nc2ccccc2C)cc1 (stereo not drawn),-6,/,103,96
COc1ccc(C2=NN(C(=O)COc3ncnc4ccccc34)C(c3ccco3)C2)cc1 (stereo not drawn),154,-9,107,106
NNCCc1ccccc1,0,-4&-8,100&101,100&101
CC(=O)NCc1ccc(C(=O)CSc2nc3ccccc3n2-c2ccccc2)s1,7,-23,104,103
CC(C)N(CC(=O)Nc1ccc2c(c1)OCCO2)c1ccccc1,9,-34,107,91
CCOC(=O)NN1C(=O)c2ccccc2NC1c1ccccc1 (stereo not drawn),116,-5,100,98
COC(=O)Cc1c(C(=O)OC)sc(N)c1C(=O)OC,33,-28,/,/
COc1cc(C(=O)Oc2ccc(-c3nnco3)cc2)ccc1OC(F)F,11,15,103,100
CN(C)c1nc2nonc2nc1Nc1ccc(F)cc1,4,-48,107,102
O=C(Nc1ccc(N2C(=O)c3cccnc3C2=O)cc1)c1ccco1,-15,-16,104,106
Cc1ccc(NC(=O)CN(C)C(=S)NC2CC2)cc1,-12,-21,102,110
COC(=O)c1cnc(NC(=O)c2ccc3c(c2)S(=O)(=O)N=C2CCCCCN23)s1,0,-11,106,102
COc1ccc(Nc2cc(C)c3cc(NC(=O)c4ccco4)ccc3n2)cc1,123,-1,100,102
